# Screening data: PubChem BioAssay, several laboratories
# OX1R antag = blocks the human orexin 1 receptor. inhibition, % at 6.6 µM. 330,000 compounds, 1.8% hits. OX1R-expressing cells, FRET antagonist read-out; in the data active = inhibition mostly above about 38%, no sharp cut-off; inactive = mostly below about 40%;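 also: 0% = agonist challenge alone and 100% = reference antagonist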
# Target sequence (O43613 whole entry, looked up): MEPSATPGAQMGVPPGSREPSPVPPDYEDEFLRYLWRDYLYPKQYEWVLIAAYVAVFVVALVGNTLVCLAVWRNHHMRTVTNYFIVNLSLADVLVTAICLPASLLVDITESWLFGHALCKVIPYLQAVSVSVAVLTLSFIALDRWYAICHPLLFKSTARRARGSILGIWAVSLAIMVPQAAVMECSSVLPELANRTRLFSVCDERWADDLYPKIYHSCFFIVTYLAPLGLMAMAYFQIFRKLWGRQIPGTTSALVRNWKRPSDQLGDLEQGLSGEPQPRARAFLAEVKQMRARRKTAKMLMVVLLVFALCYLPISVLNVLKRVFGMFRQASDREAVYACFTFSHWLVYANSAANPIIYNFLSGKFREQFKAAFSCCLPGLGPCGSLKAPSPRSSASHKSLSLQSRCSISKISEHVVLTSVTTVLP
# STK33 inh = blocks human STK33 kinase activity. 320,000 compounds, 0.073% hits. Q9BYT3. purified STK33, MBP phosphorylation, ADP-Glo luminescence. inhibition, % at 10 µM;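 active = inhibition at or above 25%, using the most active replicate where run in duplicate; inactive = inhibition below 25%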
# Target sequence (Q9BYT3 whole entry, looked up): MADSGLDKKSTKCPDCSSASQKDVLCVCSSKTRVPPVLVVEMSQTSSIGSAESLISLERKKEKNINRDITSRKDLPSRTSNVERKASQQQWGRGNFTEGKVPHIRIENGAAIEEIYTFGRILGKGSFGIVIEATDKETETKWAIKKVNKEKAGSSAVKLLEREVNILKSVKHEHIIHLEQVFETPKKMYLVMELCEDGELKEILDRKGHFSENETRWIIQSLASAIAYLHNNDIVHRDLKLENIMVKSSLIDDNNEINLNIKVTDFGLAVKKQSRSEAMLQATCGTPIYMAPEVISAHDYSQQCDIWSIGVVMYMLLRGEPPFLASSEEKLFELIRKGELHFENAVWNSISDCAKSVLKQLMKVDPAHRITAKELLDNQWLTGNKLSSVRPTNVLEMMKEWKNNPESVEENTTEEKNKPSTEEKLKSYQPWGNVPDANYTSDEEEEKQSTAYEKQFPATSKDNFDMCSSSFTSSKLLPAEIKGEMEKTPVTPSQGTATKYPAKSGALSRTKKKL
# The depositor's hits bear a star; . = not tested or not shown; & = joins results of further samples.
SMILES,OX1R antag,STK33 inh
C=C(C)Cn1c(=O)c2c(nc3n2CC(C)CN3Cc2ccccc2)n(C)c1=O (stereo not given),14,6.6
O=C(CC(c1ccco1)S(=O)(=O)c1ccccc1)c1ccc(F)cc1 (stereo not given),3,1.1
O=C(NCC(F)(F)F)Nc1ncccn1,7,1.0
O=C(c1nn(-c2ccccc2)c(=O)c2ccccc12)N1CCN(c2ncccn2)CC1,17,1.8
O=C(OC(C(=O)NCc1ccco1)c1ccc(Cl)cc1)c1cccs1 (stereo not given),8,0.1
COC(=O)c1c(C(=O)OC)c(-c2ccc(OC)cc2)n2c1CS(=O)C2 (stereo not given),9,-1.1
CC(=O)C1C(=O)C=C(c2cccs2)CC1c1ccccc1 (stereo not given),23,1.0
COc1cccc(CN(C)C(=O)c2cc(-c3cccs3)nc3ccccc23)c1,36,0.0
O=C(Nc1ccncc1)c1ccccc1F,7,2.1
O=C(CCN1C(=O)/C(=C\c2ccco2)SC1=S)Nc1ccc(C(=O)O)c(O)c1,-1,2.2
Cc1nn(CC(C)C)c(=S)[nH]c1=O,21,0.5
N/C(=N\OC(=O)N1c2ccccc2Sc2ccccc21)c1ccc(Br)cc1,33,-0.7
COC(=O)c1ccc(C2/C(=C(/O)c3ccc(OC)cc3)C(=O)C(=O)N2c2cc(C)on2)cc1 (stereo not given),15,-0.6
COc1cc(-c2c(-c3cccc(C)c3)oc3ccccc23)cc(OC)c1OC,23,-1.0
Cc1cccc(OCCCSc2nc3ccccc3[nH]2)c1,56,-0.3
CCOC(=O)c1ccccc1NC(=O)Cn1c(=O)n(Cc2ccccc2)c(=O)c2c(C)c(C)sc21,14,-2.3
CCCCC(=O)N(CCC)CCC,.,0.1
Cc1cccc(CS(=O)(=O)Cc2ccc(C(=O)NCC3CCCO3)o2)c1 (stereo not given),16,-0.3
COc1ccc(NC(=O)C2CCCN(C(=O)Nc3ccc(OC)cc3)C2)cc1 (stereo not given),23,1.2
O=C(NNC(=O)C1CC(=O)N(c2ccc3c(c2)OCCO3)C1)c1ccc(F)cc1 (stereo not given),22,-0.7
COc1ccccc1CN1CC(C(=O)NCc2cccc(C)n2)CCC1=O (stereo not given),2,0.4
COc1c2ccccc2nc2ccccc12,16,0.4
CC(C)C(=O)NCCc1nc2ccccc2n1CCc1ccccc1,14,0.9
CC(C)CC(=O)Nc1ccc(-c2nc3ccccc3c(=O)[nH]2)cc1,15,-0.1
CC(=O)Nc1ccccc1Nc1nc(NCCO)nc(N2CCCC2)n1,9,1.3

# Quoted at random: 6 records from the list, in no set order.
SMILES,OX1R antag,STK33 inh
O=C(c1nn(-c2ccccc2)c(=O)c2ccccc12)N1CCN(c2ncccn2)CC1,17,1.8
O=C(OC(C(=O)NCc1ccco1)c1ccc(Cl)cc1)c1cccs1 (stereo not given),8,0.1
COC(=O)c1ccc(C2/C(=C(/O)c3ccc(OC)cc3)C(=O)C(=O)N2c2cc(C)on2)cc1 (stereo not given),15,-0.6
O=C(Nc1ccncc1)c1ccccc1F,7,2.1
O=C(CC(c1ccco1)S(=O)(=O)c1ccccc1)c1ccc(F)cc1 (stereo not given),3,1.1
Cc1cccc(CS(=O)(=O)Cc2ccc(C(=O)NCC3CCCO3)o2)c1 (stereo not given),16,-0.3

# Next section
SMILES,OX1R antag,STK33 inh
COCCCOc1ccnc(CS(=O)c2nc3ccccc3[nH]2)c1C (stereo not given),17&19,8.4&-2.8
COc1cccc(NC(=O)N2CCN(c3cccc(C)c3C)CC2)c1,34,-0.1
O=C(CNC(=O)Cc1ccccc1)NCC(=O)OCc1ccc(C(=O)c2ccccc2)cc1,9,-0.4
Cc1ccc(CNC(=O)c2ccc(N3CCc4ccccc43)c([N+](=O)[O-])c2)cc1,17,-1.2
COc1ccccc1NC(=S)NC(=O)CCc1ccccc1,54,-1.2
CC(O/N=C/c1ccc(OC(F)F)cc1)C(=O)Nc1cccc(S(=O)(=O)N2CCOCC2)c1 (stereo not given),12,-0.9
O=C(Nc1ccc(OC(F)(F)F)cc1)c1cnc2n(c1=O)CCS2,3,-0.7
Cc1cc(C(=O)OCC(=O)Nc2ccc(S(N)(=O)=O)cc2)c2ccccc2n1,10,-1.1
Cc1cnc(C(=O)Nc2cc(S(=O)(=O)N3CCOCC3)ccc2N2CCN(C)CC2)cn1,4,-1.5
CCOc1ccc(C(=O)Nc2c3c(nn2-c2cccc(Cl)c2)CS(=O)C3)cc1 (stereo not given),11,-1.6
COc1ccc(-c2cc(=O)oc3c(C)c(OC(C)C(=O)NCc4ccccn4)ccc23)cc1 (stereo not given),13,-0.9
CN(C)S(=O)(=O)c1cccc(C(=O)NCCc2ccccc2)c1,25,-0.7
Cc1nc(-c2noc(-c3ccc(Cl)cc3)n2)c(C(F)(F)F)o1,2,0.3
Cc1ccc(CN2CCSc3ccc(C(=O)N4CCN(c5ncccn5)CC4)cc32)cc1,8,0.3
CN1CCN(c2oc(/C=C/c3ccccc3)nc2C#N)CC1,9,-0.6
Cc1cc(Cn2nnc3ccccc32)c(O)c(C(C)(C)C)c1,14,0.4
CC(=O)Nc1nc(C)nc(-c2ccccc2)c1C(C)=O,17,3.5
O=C(NCCCl)Nc1cccc(Br)c1,6,-1.6
Cc1cc2c(NCCc3ccccc3)ncnc2s1,54*,0.4
Cc1c(C(=O)C(C)C)n(C)c2ccccc12,21,-2.1
COc1ccc(N=Cc2ccc(-c3ccccc3)o2)cc1,3,0.0
CCOC(=O)c1cnc2c(C)cccc2c1Nc1cccc(C(=O)O)c1,28,-1.0
Cc1ccc(-c2nn(CCC(=O)O)cc2CCC(=O)O)cc1,4,-0.3
C=CCN1C(=O)/C(=C2/Sc3ccccc3N2C)SC1=Nc1ccccc1C,1,-0.4
CN(C)c1c(N)[nH]c2c(c1=O)c(=O)n(C)c(=O)n2C,7,-2.4

# Arranged by value in STK33 inh (falling): four from the list above.
smiles | OX1R antag | STK33 inh
Cc1cc(Cn2nnc3ccccc32)c(O)c(C(C)(C)C)c1 | 14 | 0.4
COc1ccc(-c2cc(=O)oc3c(C)c(OC(C)C(=O)NCc4ccccn4)ccc23)cc1 (stereo not given) | 13 | -0.9
Cc1cc(C(=O)OCC(=O)Nc2ccc(S(N)(=O)=O)cc2)c2ccccc2n1 | 10 | -1.1
COc1ccccc1NC(=S)NC(=O)CCc1ccccc1 | 54 | -1.2

# (listing goes on)
SMILES,OX1R antag,STK33 inh
CCOC(=O)N1CCN(C(=O)C2CCN(C(=O)c3cc4sccc4n3CC)CC2)CC1,3,-0.6
COc1cnc(-c2ccccn2)nc1Oc1ccc(F)cc1F,-3,-2.7
O=C(c1ccc(-c2ccccc2)cc1)N1CCN(c2ccccc2)CC1,12,0.8
CCCCCCn1c(N2CCN(c3ccccc3)CC2)nc2c1c(=O)n(C)c(=O)n2C,5,0.4
CCOC(=O)c1ccc(NC(=O)Cn2nnc3ccccc32)cc1,51,-0.7
CC1CCc2cc(F)ccc2N1C(=O)CN1C(=O)c2ccccc2C1=O (stereo not given),21,-2.6
CCOC(=O)c1cc(-c2csc(Nc3ccccc3Cl)n2)on1,7,-0.6
CCOC(=O)C1CCN(S(=O)(=O)c2ccc3c(c2)NC(=O)CS3)CC1,8,0.1
O=C(CN(c1ccccn1)S(=O)(=O)c1ccc(F)cc1)Nc1ccc(F)cc1F,11,-0.6
CC1CCN(c2cc(N3CCN(C(=O)c4ccc(F)c(F)c4)CC3)c([N+](=O)[O-])cc2F)CC1,-1,0.0
CN(Cc1nnc(SCC(=O)NCCc2ccccc2)n1C)S(=O)(=O)c1ccccc1,9,-0.5
Cn1c(SCC(=O)NC(c2ccccc2)c2ccccc2)nnc1-c1cccs1,31,-0.4
COc1ccc(Br)cc1C(=O)N/N=C/c1ccc([N+](=O)[O-])cc1,17,-0.7
CC(C)c1ccc(NC2CCCN(C(=O)CSc3nncn3C)C2)cc1 (stereo not given),7,-0.7
Cc1sc(NC(=O)CN2CCN(c3ccccn3)CC2)c(C#N)c1C,-7,-1.0
CN(C)c1ccc(C(CNC(=O)Cc2cccc3ccccc23)N(C)C)cc1 (stereo not given),19,1.1
CCOC(=O)c1c(NC(=O)CN(CC)CC)sc2c1CCN(C(=O)OCC)C2,2,1.5
COc1ccc(CNC(=O)CCn2c(=O)[nH]c3ccccc3c2=O)cc1,7,-1.2
O=[N+]([O-])c1ccc(-c2ccn[nH]2)o1,67,0.0
COc1ccc(/C=C/C(=O)Nc2cccnc2)cc1OC,41,1.9
C/C(=N\Nc1nccnc1Cl)c1c(F)c(F)c(F)c(F)c1F,10,-0.3
Cc1ccc2c(c1)-c1[nH]c(=S)ncc1CS2,8,-2.1
CC(C)C(OC(=O)c1nsc(Cl)c1Cl)C(=O)NCc1ccccc1 (stereo not given),2,-1.9
COC(=O)c1sccc1-n1cccc1C(=O)C(=O)N1CC(C)OC(C)C1 (stereo not given),13,2.3
COc1ccccc1C(=O)NNC(=O)C(=O)Nc1cccc(Cl)c1C,34,-2.4
# Further results:
SMILES,OX1R antag,STK33 inh
O=C1c2cccnc2C(=O)N1CNc1ccc(Cl)cc1,10,0.5
Clc1ccsc1-c1ccnc(-n2cccc2)n1,23,0.2
Cc1ccc(CSc2nnc(CC(=O)Nc3ccc(C)cc3)n2C)cc1,17,-1.0
CCN(CCO)c1nc(N2CCCCC2)c2cnn(C)c2n1,10,1.3
CC(NC(=O)C1CCCN1S(=O)(=O)c1cccc2cccnc12)c1ccccc1 (stereo not given),34,-0.6
Cc1ccc(N/C=C(/C#N)c2ccsc2)cc1C,14,2.5
COc1ccc(C(c2nnnn2Cc2cccs2)N2CCN(c3ccccc3F)CC2)cc1OC (stereo not given),6,0.0
COc1ccc(N)cc1NC(=O)CN1CCCC1,12,-0.2
CSc1ccccc1NC(=O)CN1CCN(Cc2ccccc2)CC1,11,-0.2
CCCn1c(-c2ccc(OC)cc2)nc2ccccc21,5,0.8
Cc1oc(-c2ccccc2)nc1C(=O)O,16,0.9
O=C(c1ccncc1)N1CCCC(N2CCN(c3ccc(F)cc3)CC2)C1 (stereo not given),-5,-0.8
CCC(C)N(C(=O)CSc1nnc(COc2ccccc2F)n1N)C1CCS(=O)(=O)C1 (stereo not given),11,-0.1
Cc1ccccc1C1CCCN(C(=O)c2cc(COc3c(F)cccc3F)on2)C1 (stereo not given),11,0.6
Cc1c(NC(=O)C(C)OC(=O)c2ncc(Cl)c(Cl)c2Cl)c(=O)n(-c2ccccc2)n1C (stereo not given),22,-1.6
O=C(OCn1nnc2ccccc2c1=O)C12CC3CC(CC(O)(C3)C1)C2,18,-1.4
O=C(NCc1cccs1)C1CCN(c2nc3ccccc3o2)CC1,11,1.0
O=C(CN1C(=O)c2ccccc2C1=O)NNC1=NS(=O)(=O)c2ccccc21,12,-0.6
CCN(CC)C(=O)Cn1c(=O)n(-c2ccc(CC(=O)NCc3ccccc3)cc2)c(=O)c2sccc21,7,-0.8
Cc1cc2cc(CNC(=O)CC(C)C)ccc2n1C,12,0.0
CCCC1(C(=O)OCC)NC(c2ccc(OC)cc2OC)C2C(=O)N(c3ccc4c(c3)OCCO4)C(=O)C21 (stereo not given),1,-0.8
COc1cccc(C(=O)NCC(=O)N/N=C(\C)Cc2ccccc2)c1,17,-0.8
O=C(NCc1cccnc1)c1cccc(C(F)(F)F)c1,12,-0.2
CSCCC(NC(=O)COc1ccccc1)C(=O)N1CCN(c2ccccc2Cl)CC1 (stereo not given),4,-0.3
CC(=O)ON1C(C)(C)Cc2noc(N)c2C1(C)C,4,-1.1

# Reformatted as tab-separated lines: part of the list above.
SMILES	OX1R antag	STK33 inh
Cc1nc(-c2noc(-c3ccc(Cl)cc3)n2)c(C(F)(F)F)o1	2	0.3
CCOC(=O)C1CCN(S(=O)(=O)c2ccc3c(c2)NC(=O)CS3)CC1	8	0.1

# Later entries:
SMILES,OX1R antag,STK33 inh
CS(=O)(=O)N1Cc2ccccc2CC1C(=O)OCC(=O)Nc1ccc2ccccc2c1 (stereo not given),16,0.3
NC(=O)c1nsc(C(=O)N(Cc2cccnc2)C(C(=O)NC2CCCC2)c2ccc(F)cc2)c1N (stereo not given),25,0.2
CC(C)CNC(=O)C(=O)NCC(c1ccc2c(c1)OCO2)N1CCOCC1 (stereo not given),15,1.8
NNc1nc(-c2ccccc2Cl)c2cc(Br)ccc2n1,9,-1.2
Cc1sc(NC(=O)C(C)C)c(C(=O)Nc2ccccc2)c1C,9,-0.1
CCOC(=O)C1CCCN(c2cc(=O)n(-c3ccccc3Cl)c(=O)[nH]2)C1 (stereo not given),2,-0.1
COc1ccc(Oc2ccc(N/C=C/C(=O)C(C)(C)C)cc2)cc1,7,-1.2
COc1cc(C(=O)Oc2ccc3ccc(O)cc3c2)cc(OC)c1OC,12,0.0
O=C(Oc1ccc(-c2cnc3ccccc3n2)cc1)c1cccc([N+](=O)[O-])c1,7,0.0
CN(C)C(=O)N1CCN(c2nc(-c3ccccc3)cs2)CC1,15,0.5
O=C(Nc1cccc(-c2cn3cccnc3n2)c1)c1cccs1,15,1.1
O=C(Cn1nnc2ccccc2c1=O)NCCc1ccc(Cl)cc1Cl,11,0.3
C[C@]12C[C@H](O)[C@@H]3c4ccc(O)cc4CCC3[C@@H]1CCC2=O (stereo not given in full),14,1.0
N#CC1=C(N)Oc2c(oc(CO)cc2=O)C1c1cccs1 (stereo not given),77*,1.3
Cc1scc(C(=O)N/N=C/c2ccc([N+](=O)[O-])o2)c1C,51*,1.0
O=C(CCN1C(=O)c2ccc([N+](=O)[O-])cc2C1=O)Nc1cccc(O)c1,46*,-1.5
COc1cccc(-n2c(SCC(=O)Nc3nccs3)nnc2-c2ccoc2C)c1,26,0.8
CN(C(=O)Nc1ccccc1)C1CCS(=O)(=O)C1 (stereo not given),5,0.6
Fc1cc2ncn(Cc3ccccc3)c2cc1F,11,-0.7
CCOC(=O)c1cn(CC)c2cc(N3CCSCC3)c(F)cc2c1=O,15,1.2
COc1ccc(/C=C/C(=O)OCC(=O)c2c(N)n(C)c(=O)n(C)c2=O)cc1,19,-1.5
COCCN(C(=O)COC(=O)Cc1coc2cc(C)ccc12)c1c(N)n(Cc2ccccc2)c(=O)[nH]c1=O,9,0.4

# Not all compounds are listed; most or all hits stand in other tables.
